High-throughput results from PubChem BioAssay.
Mtb MenB inh: M. tuberculosis MenB inhibitors, primary screen, biochemical, absorbance. 0.43% of 100,000 active. 1,4-dihydroxy-2-naphthoyl-CoA synthase (Mycobacterium tuberculosis (strain ATCC 25618 / …. MenB enzyme assay, absorbance read-out; some hits fall short of the stated cut. AID 540299, 2011. inhibition, %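 (about 12 µg/mL by stock and volumes)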;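 active = mean of two replicates above 30%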;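 also: 0% = no compound and 100% = wells with inactive enzyme; the first replicate is given; strong numbers were not always called active; inactives centre near -10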
PV pol inh: poliovirus RdRp elongation inhibitors, primary screen, biochemical, fluorescence polarization, total intensity; Genome polyprotein (Poliovirus type 1 (strain Mahoney)), P03300; poliovirus polymerase elongation; active compounds read low; % elongation, % (compound at 16.7 µg/mL); 0.66% of 150,000 active; AID 588519, 2011; in the data active = % elongation below about 90%; also: some results filed as inactive read as strong as hits
Target sequence (P03300 1749-2209 limits assumed): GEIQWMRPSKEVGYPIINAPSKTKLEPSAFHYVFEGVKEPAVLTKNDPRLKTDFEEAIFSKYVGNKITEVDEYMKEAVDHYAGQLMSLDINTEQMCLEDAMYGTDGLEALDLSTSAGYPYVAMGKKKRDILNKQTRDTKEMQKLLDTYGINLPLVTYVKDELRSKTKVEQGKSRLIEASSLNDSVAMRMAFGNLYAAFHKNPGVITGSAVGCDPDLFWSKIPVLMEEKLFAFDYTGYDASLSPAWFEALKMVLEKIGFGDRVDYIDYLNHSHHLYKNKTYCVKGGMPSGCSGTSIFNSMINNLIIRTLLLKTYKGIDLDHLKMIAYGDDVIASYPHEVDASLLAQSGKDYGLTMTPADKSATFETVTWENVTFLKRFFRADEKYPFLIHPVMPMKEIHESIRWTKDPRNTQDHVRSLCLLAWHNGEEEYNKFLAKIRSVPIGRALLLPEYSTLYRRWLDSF
MbtI inh: MbtI salicylate synthase inhibitors, primary screen, biochemical, fluorescence intensity; purified MbtI enzyme, fluorescence intensity read-out; inhibition, %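 (about 17 µg/mL by stock and volumes)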; 0.89% of 100,000 active; AID 493033, 2011;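 active = above 50% in both replicates, above 80% if mildly self-fluorescent; inactive = the rest, strongly fluorescent compounds included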;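 also: 0% = mean of negative and 100% = mean of positive controls; one replicate is shown; some compounds called inactive have numbers as strong as hits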
Target sequence (P9WFX0 whole entry, looked up): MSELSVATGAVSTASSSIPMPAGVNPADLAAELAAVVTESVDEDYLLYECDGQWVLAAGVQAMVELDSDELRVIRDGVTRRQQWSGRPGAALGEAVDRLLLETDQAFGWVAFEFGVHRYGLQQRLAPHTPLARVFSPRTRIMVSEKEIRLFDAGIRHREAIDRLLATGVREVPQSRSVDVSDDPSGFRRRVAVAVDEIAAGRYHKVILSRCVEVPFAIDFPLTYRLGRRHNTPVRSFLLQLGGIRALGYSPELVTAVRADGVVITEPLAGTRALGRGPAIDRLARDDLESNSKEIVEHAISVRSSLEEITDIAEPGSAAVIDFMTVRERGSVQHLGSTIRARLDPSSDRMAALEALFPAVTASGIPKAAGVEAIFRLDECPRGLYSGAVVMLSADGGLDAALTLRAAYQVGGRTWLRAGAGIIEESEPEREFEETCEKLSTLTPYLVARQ
PV pol inh intensity: also measured in PV pol inh; calls as there; % elongation; measured here: total intensity read-out; formula for this scale not given here;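 total fluorescence in place of polarization; lower means less elongation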
* hit, by the source's call; i = inactive; nt = no result given.

Preview:
SMILES	Mtb MenB inh	PV pol inh	PV pol inh intensity	MbtI inh
O=c1c2ccccc2c(-c2ccccc2)nn1CCc1ccccn1	-8.3	108.0	109.0	nt
O/N=C1/CCSc2ccccc21	0.5	104.0	102.0	18.8
COc1ccc2c(c1)C(C)=CC(C)(C)N2	0.2	91.0	92.0	nt

The listing, repeating the preview:
SMILES	Mtb MenB inh	PV pol inh	PV pol inh intensity	MbtI inh
O=c1c2ccccc2c(-c2ccccc2)nn1CCc1ccccn1	-8.3	108.0	109.0	nt
O/N=C1/CCSc2ccccc21	0.5	104.0	102.0	18.8
COc1ccc2c(c1)C(C)=CC(C)(C)N2	0.2	91.0	92.0	nt
COc1ccc(CNCc2cccc(OC)c2)cc1	0.3	89.0*	85.0*	4.8
CCCNC(=O)c1ccc2c(c1)N(Cc1ccccc1)C(=O)c1ccccc1S2	-0.2	102.0	103.0	-10.3
CCOC(=O)C(C)Sc1nnc(CNC(=O)C23CC4CC(CC(C4)C2)C3)n1-c1ccccc1 (configuration not stated)	-33.3	100.0	93.0	4.2
CCC(c1nnc(SCC(=O)NC23CC4CC(CC(C4)C2)C3)o1)N(C)C (configuration not stated)	-32.9	106.0	110.0	17.1
O=C(CSc1nnnn1-c1ccc(O)cc1)N1CCSC1c1ccccc1F (configuration not stated)	10.9	97.0	102.0	-0.8
CC(=O)N(c1nc(-c2cc3ccccc3oc2=O)cs1)c1cccc(C)c1C	-8.5	103.0	94.0	-2.3
CCCNC(=O)C1CCN(S(C)(=O)=O)CC1	9.9	99.0	102.0	-5.6
C[C@@H](N)[C@H](O)c1ccccc1	7.0	99.0	101.0	-7.0
COc1ccc(Cl)cc1NC(=O)c1cc2c(CO)cnc(C)c2oc1=N	-15.2	101.0	96.0	-4.0
Cc1ccc(SCC2=NN(c3nc(C)cc(C)n3)C(=O)C2)cc1	-29.5	101.0	106.0	-6.2
CC(C)(C)NC(=O)CSc1nc2ccccc2n1-c1ccccc1	-13.3	101.0	110.0	nt
CCN(Cc1ccccc1)C(=O)CSc1nnc(C)c(=O)n1N	3.0	104.0	111.0	5.6

SMILES	Mtb MenB inh	PV pol inh	PV pol inh intensity	MbtI inh
CC(C)NC(=O)n1ncc(S(=O)(=O)c2ccc(Cl)cc2)c1-c1ccc(Cl)cc1	-20.9	106.0	96.0	-7.8
Cc1nnsc1-c1noc(CS(=O)(=O)c2ccc(Cl)cc2)n1	-7.5	102.0	99.0	-3.8
CCC(COc1nnnc2ccccc12)NC(=O)c1cnc(C)cn1 (configuration not stated)	-3.2	99.0	102.0	-14.9
Oc1cc(C2CCCCC2)cc(C2CCCCC2)c1	-29.7	101.0	106.0	-2.0
NCC1CCN(C2CCCC2)CC1	-10.1	100.0	102.0	0.9
Cc1ccc(/C=C2/C=CC(=O)O2)o1	-312.7	81.0*	92.0*	nt
COC(=O)CCN1C(=O)/C(=C\c2cccs2)SC1=S	-50.5	100.0	100.0	17.5
Cc1ccc(-c2cn3c(=S)[nH]nc3s2)cc1	-50.8	100.0	99.0	97.7*
CC(=O)NCc1ccc(C(=O)CSc2nc(C3CC3)n(-c3ccccc3)n2)s1	-13.5	111.0	117.0	-2.6
CCn1c2ccccc2c2cc(N=Cc3ccc(OC(=O)c4ccco4)cc3)ccc21	-3.2	99.0	109.0	14.2
Cc1ccc(C)n1-c1ccc(C(=O)N2CCCCC2C)cc1 (configuration not stated)	-1.4	98.0	105.0	3.6
Cn1c(=O)oc2cc(S(=O)(=O)NCCCN3CCN(c4cccc(Cl)c4)CC3)ccc21	-4.7	104.0	100.0	0.7
O=C(Cn1c(NCCO)nc2ccccc21)N1CCOCC1	-6.5	100.0	105.0	-15.2
COc1ccc(CC(=O)OCC(=O)Nc2ccc3c(c2)OCO3)cc1	4.5	106.0	113.0	-10.1
CN(C)c1oc(COc2ccc(F)cc2)nc1C#N	0.0	101.0	104.0	-13.9

Random excerpt: 6 records from the list, in no set order.
SMILES	Mtb MenB inh	PV pol inh	PV pol inh intensity	MbtI inh
COC(=O)CCN1C(=O)/C(=C\c2cccs2)SC1=S	-50.5	100.0	100.0	17.5
CCn1c2ccccc2c2cc(N=Cc3ccc(OC(=O)c4ccco4)cc3)ccc21	-3.2	99.0	109.0	14.2
COc1ccc(CC(=O)OCC(=O)Nc2ccc3c(c2)OCO3)cc1	4.5	106.0	113.0	-10.1
Cc1ccc(C)n1-c1ccc(C(=O)N2CCCCC2C)cc1 (configuration not stated)	-1.4	98.0	105.0	3.6
Cn1c(=O)oc2cc(S(=O)(=O)NCCCN3CCN(c4cccc(Cl)c4)CC3)ccc21	-4.7	104.0	100.0	0.7
NCC1CCN(C2CCCC2)CC1	-10.1	100.0	102.0	0.9

Other structures.
SMILES	Mtb MenB inh	PV pol inh	PV pol inh intensity	MbtI inh
CCOC(=O)Cn1c(=O)c(-c2nc(-c3ccccc3)cs2)cn(C(C)C)c1=O	2.4	94.0	101.0	16.8
CS(=O)(=O)Nc1cccc(C(=O)OC2CCOC2=O)c1 (configuration not stated)	-3.3	101.0	109.0	0.1
CCN(CC)c1ccc(-c2cc(C(=O)O)c3c(ccc4ccccc43)n2)cc1	-30.7	71.0	195.0	-48.3
O=C(CCCn1c(=O)c2cccn2c2ccccc21)N1CCc2ccccc21	-0.1	103.0	109.0	4.3
O=C(Nc1ccc2c(c1)nc1n2CCCCC1)c1ccc(S(=O)(=O)C(F)F)cc1	-24.1	101.0	102.0	19.6
Cc1cc(CSc2ccccc2C(=O)OCc2nc3sc4c(c3c(=O)[nH]2)CCC4)no1	3.7	116.0	127.0	-4.0
NNC(=S)NCc1ccc2c(c1)OCO2	-36.0	103.0	106.0	17.6
Cc1c(CC(=O)N2CCOCC2)c(=O)oc2cc3occ(-c4ccc(F)cc4)c3cc12	17.6	101.0	102.0	-43.7
CC(C)CCNC(=O)c1cc2ccc3cccnc3c2[nH]1	-12.8	101.0	103.0	-51.5
COC(=O)CSC(=S)N1CCC(C)CC1	-56.1	101.0	99.0	-7.3
Nc1ccccc1C(=O)c1ccccc1C(=O)O	-26.2	107.0	111.0	nt
CC(NC(=O)CC1CCCCC1)c1ccccc1 (configuration not stated)	nt	100.0	106.0	-3.8
COc1ccc(-c2csc3ncc(S(=O)(=O)c4ccc(F)c(Cl)c4)c(=O)n23)cc1OC	-3.5	101.0	97.0	15.3
S=C1NCc2ccsc2S1	0.7	91.0	88.0	33.7
COc1ccc(CCNC(=O)c2ccc(N3CCCC3=O)cc2)cc1OC	-17.4	100.0	101.0	-0.8

SMILES	Mtb MenB inh	PV pol inh	PV pol inh intensity	MbtI inh
Cc1cc(C)c2c(n1)SCC(=O)N2CC(=O)NC(C)C	1.1	101.0	103.0	0.5
O=C(CCCN1C(=O)/C(=C\c2ccco2)SC1=S)N1CCCCC1	-67.7	104.0	104.0	7.2
C=C1C(C(=O)Nc2ccc3c(c2)OCCO3)C1C(=O)Nc1ccc2c(c1)OCCO2 (configuration not stated)	-3.3	109.0	107.0	nt
O=C(/C=C/c1ccco1)OCCN1CCOCC1	-30.6	102.0	100.0	13.7
O=C(NC1CCCC1)c1ccc2c(c1)OCO2	-39.8	105.0	100.0	-7.4
COc1cc2c(cc1OC)CN(Cc1ccc(C)o1)CC2	nt	104.0	108.0	0.0
O=C(COC(=O)c1cncc(Br)c1)NC1CC1	nt	100.0	102.0	3.3
Cc1cccc(C)c1NC(=O)C1c2cccc[n+]2CC(=O)N1C (configuration not stated)	-2.1	101.0	108.0	27.1
CCOC(=O)c1ccc2nc(NC(=O)COC(=O)c3ccnn3C)sc2c1	-2.9	106.0	109.0	nt
OCCSCc1cc(Cl)ccc1OC(F)F	1.6	101.0	106.0	2.3
O=C(Nc1ccc(N2CCCCC2)cc1)c1c(Cl)nc2sccn12	18.0	104.0	107.0	8.5
COC(=O)c1ccc(CN2CCN(c3ccccc3)CC2)o1	-9.5	107.0	106.0	-1.3
c1ccc(C2OCc3nonc3CO2)cc1	-0.8	103.0	108.0	nt
CCCCNC(=O)c1ccccc1NC(=O)C1=C(C)OCCS1	-15.6	99.0	102.0	12.7
CCOC(=O)CCc1c(C)nc(SCC(=O)O)c(C#N)c1C	16.3	102.0	102.0	13.7

SMILES	Mtb MenB inh	PV pol inh	PV pol inh intensity	MbtI inh
Nn1c(SCC2CCCCO2)nnc1-c1ccncc1 (configuration not stated)	-11.7	105.0	108.0	14.0
CCNC(=S)N1CCN(C)CC1	6.2	101.0	97.0	4.5
OC(c1ccccc1)(c1ccccc1)C1CCNCC1	0.0	100.0	101.0	-2.9
COc1ccc(CCNC(=O)c2cnn(-c3ccc(C)c(C)c3)c2NC(=O)c2ccco2)cc1OC	9.0	100.0	104.0	2.9
COc1ccc(N(CC(=O)Nc2cc(C)on2)S(=O)(=O)/C=C/c2ccccc2)cc1	-18.7	106.0	111.0	-6.1
O=C(NCCN1CCNC1=O)Nc1cccc2ccccc12	9.8	101.0	96.0	77.3
O=C(c1ccco1)N1CCN(C(=S)Nc2ccc(S(=O)(=O)Nc3ncccn3)cc2)CC1	-8.1	100.0	104.0	-9.9
O=C(O)c1nccnc1C(=O)N1CCN(C(c2ccccc2)c2ccccc2)CC1	7.3	104.0	98.0	4.4
COc1cc2c(cc1OC)CN(C1CCCCN(C(=O)c3ccc(F)cc3)C1=O)CC2 (configuration not stated)	-21.5	113.0	107.0	-4.8
COc1cccc(C=C2C(=O)NC(=O)NC2=O)c1	-48.6	98.0	103.0	91.0
CCCNC(=O)c1ccc(C)c(NC(=O)C2=CSCCO2)c1	-12.4	102.0	103.0	0.1
Cc1cc(NC(=O)CC(C)C)no1	-3.4	101.0	102.0	-12.6
CCCNC(=O)NC1CC(C)(C)NC(C)(C)C1	-14.4	102.0	103.0	-7.8
O=C(Cn1cnc2ccccc2c1=O)c1cccs1	-7.1	104.0	103.0	-6.1
O=C(NC1CCCc2ccccc21)c1cccnc1 (configuration not stated)	1.7	108.0	104.0	-8.0

SMILES	Mtb MenB inh	PV pol inh	PV pol inh intensity	MbtI inh
O=C(CCNC(=O)c1ccco1)Nc1cc(Cl)ccc1N1CCCCCC1	-9.5	100.0	101.0	10.2
Cc1ccc(Cn2c(N)c(C#N)c3nc(C#N)c(C#N)nc32)cc1	-34.4	106.0	107.0	-94.7
O=S(=O)(NCc1ccc2c(c1)OCO2)c1ccccc1	-11.1	101.0	108.0	-3.3
O=C(CSc1ccccc1)Nc1nc2ccccc2[nH]1	-15.0	105.0	107.0	-21.0
O=C(NC1=NCCS1)c1cc2c(s1)CCC2	nt	103.0	107.0	2.3
N#Cc1c(N)[n+]([O-])c2ccccc2[n+]1[O-]	-94.1	78.0	172.0	18.8
O=c1c2cc3c(cc2nc2sc(NCc4ccccc4)nn12)OCO3	12.7	101.0	104.0	4.8
Cc1ccc(CSc2nccc(C)n2)cc1	1.2	103.0	104.0	-6.4
CSc1nc(N/C=C(\C#N)S(=O)(=O)c2ccccc2Cl)nc(C2CC2)n1	-1.1	106.0	113.0	-8.1
Cn1c(SCC(=O)c2ccc(O)cc2O)nc2sccc2c1=O	-6.3	103.0	103.0	-8.2
O=C1NC(=S)N/C1=C\c1ccccc1	11.0	103.0	96.0	8.0
NC(=O)c1ccc(N2CCN(C(c3ccccc3)c3ccccc3)CC2)nc1	-14.3	103.0	108.0	nt
N=C1/C(=C/c2ccco2)C(=O)N=C2SC=C(c3ccccc3)N12	-61.6	102.0	114.0	74.5
OC(COCc1ccccc1)Cn1cnc2ccccc21 (configuration not stated)	-14.8	101.0	99.0	-7.1
O=C(c1ccccc1)C(O)c1c[nH]c2ccccc12 (configuration not stated)	0.8	102.0	99.0	nt
O=C(COC(=O)/C=C/c1cn(-c2ccccc2)nc1-c1ccccc1)NC1CC1	nt	102.0	106.0	21.2
CCSC(=C(C#N)C#N)c1cc2c([nH]1)CCCC2	i	99.0	108.0	3.2
COC(=O)C(C)Sc1n[nH]c(-c2ccc(Br)cc2)n1 (configuration not stated)	-2.3	102.0	103.0	11.6

Sorted by number of heavy atoms (high to low): some entries from above
SMILES	Mtb MenB inh	PV pol inh	PV pol inh intensity	MbtI inh
NC(=O)c1ccc(N2CCN(C(c3ccccc3)c3ccccc3)CC2)nc1	-14.3	103.0	108.0	nt
O=c1c2cc3c(cc2nc2sc(NCc4ccccc4)nn12)OCO3	12.7	101.0	104.0	4.8
OC(COCc1ccccc1)Cn1cnc2ccccc21 (configuration not stated)	-14.8	101.0	99.0	-7.1
O=C(c1ccccc1)C(O)c1c[nH]c2ccccc12 (configuration not stated)	0.8	102.0	99.0	nt
CCSC(=C(C#N)C#N)c1cc2c([nH]1)CCCC2	i	99.0	108.0	3.2
Cc1ccc(CSc2nccc(C)n2)cc1	1.2	103.0	104.0	-6.4
